AID923 = qHTS Assay for Allosteric/Competitive Inhibitors of Caspase-1: Spectroscopic Profiling in AFC Spectral Region | Potency, µM (series often up to 57.5 µM), for inactives: at the highest dose fluorescence increase, usual class: activators | 75,000 tested, 1.1% active | compound fluorescence, AFC spectral region (405/520 nm); almost no hit is shown here; active means well fitted activation curve with a large enough effect; inconclusive means small, poorly fitted or top-dose-only effect;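 further: potency means the concentration at half of the fitted maximal effect; 0% is about no effect; scaled to a free AFC standard on each plate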
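Baseline compound fluorescence (AFC region, 405 nm ex/520 nm em) taken from the intercept of kinetic reads with 50 nM caspase-1 and 5 uM Ac-WEHD-AFC; normalized to an on-plate AFC standard curve; compounds titrated up to 57 uM.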
Resorufin autofl = compound fluoresces in the resorufin spectral region. max dye-equivalent concentration, M. Compound fluorescence, resorufin region 547/598 nm, buffer; hits give high values. 59,000 tested, 0.04% active; active = above 10 nM dye equivalent; inconclusive = 1 to 10 nM; inactive = 1 nM or less; a few of its hits are not listed in these tables; further: highest value over a series up to 38 µM
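Compounds in 100 mM Tris, pH 8.0, incubated 15 min at room temperature, then fluorescence read at 547 nm excitation/598 nm emission. Signal converted to dye-equivalent concentration via an on-plate six-point resorufin standard curve, per compound concentration.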
TSHR agonist = activates the human thyroid stimulating hormone receptor | P16473 | HEK293-CNG-TSHR cells (CNG channel as cAMP sensor), membrane potential dye, cAMP | Potency, µM (highest dose often 57.1 µM), for the others: at the highest dose activation, hits mostly activators | 73,000 tested, 0.48% active; active = well fitted activation curve of enough size with the parental cells flat; inconclusive = any curve in the parental cells; inactive = parental cells flat and receptor cells flat or falling; further: potency means the concentration at half of the fitted maximal effect; % of control where 0% means no effect; weak receptor curves with flat parental cells got no call and are not listed
Target sequence (P16473 whole entry, looked up): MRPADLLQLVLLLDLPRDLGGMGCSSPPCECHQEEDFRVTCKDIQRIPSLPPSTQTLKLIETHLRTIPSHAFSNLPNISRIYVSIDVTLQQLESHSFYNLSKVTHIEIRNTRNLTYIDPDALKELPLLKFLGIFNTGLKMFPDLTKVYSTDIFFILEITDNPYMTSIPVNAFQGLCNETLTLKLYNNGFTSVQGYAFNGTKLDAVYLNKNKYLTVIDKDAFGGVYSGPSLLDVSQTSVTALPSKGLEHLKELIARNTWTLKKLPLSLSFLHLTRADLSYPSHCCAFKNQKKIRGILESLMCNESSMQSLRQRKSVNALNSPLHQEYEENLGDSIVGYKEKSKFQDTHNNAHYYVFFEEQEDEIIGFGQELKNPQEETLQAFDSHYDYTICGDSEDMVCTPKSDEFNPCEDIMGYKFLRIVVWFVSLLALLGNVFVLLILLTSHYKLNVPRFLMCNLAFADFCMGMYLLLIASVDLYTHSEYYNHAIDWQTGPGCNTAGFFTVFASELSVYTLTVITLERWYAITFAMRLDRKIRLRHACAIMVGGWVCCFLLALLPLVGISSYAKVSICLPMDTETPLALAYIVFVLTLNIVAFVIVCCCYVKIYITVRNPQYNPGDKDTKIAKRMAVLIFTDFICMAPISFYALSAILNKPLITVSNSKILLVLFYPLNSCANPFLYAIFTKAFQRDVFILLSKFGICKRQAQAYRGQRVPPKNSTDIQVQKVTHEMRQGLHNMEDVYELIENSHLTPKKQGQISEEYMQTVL
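cAMP rise detected as CNG-channel membrane depolarization by fluorescent dye (emission 590 nm), 30 min after compound, following 60 min dye loading containing 100 uM RO 20-1724 at room temperature. Cells: TSHR/CNG HEK 293, with parental CNG HEK 293 as control.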
A488 autofl = compound autofluorescence in A488 spectral region | compound autofluorescence, A488 spectral region, dye equivalency; hits give high values | max dye equivalency, M | 59,000 tested, 0.1% active; active = above 10 nM dye equivalent; inconclusive = 1 to 10 nM; inactive = 1 nM or less; about half of its hits are not listed in these tables;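 further: highest value over a series up to 38 µM; compound alone in buffer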
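Spectroscopic profiling in the A488 region: compounds in pH 8.0 Tris (100 mM), 15 min RT, CCD imaging with 480 nm excitation and 540 nm emission; responses normalized against A488 dye standards.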
A647 autofl = compound autofluorescence in A647 spectral region | Compound fluorescence, A647 channel (570/671 nm), Tris buffer | max dye-equivalent concentration, M | 59,000 tested, under 10 active; active means above 1 µM dye equivalent; inconclusive means 0.1 to 1 µM; inactive means 0.1 µM or less;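 further: values scaled relative to a standard on each plate; highest value over a series up to 38 µM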
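Buffer was dispensed, compounds and Alexa 647 standards were pin-transferred, and plates sat 15 min at room temperature. Intensity at 570/671 nm was then converted to dye-equivalent concentration using the plate's A647 standard curve.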
An asterisk follows results filed as active; i = inactive; ? = inconclusive; nt = not tested or not shown; & = joins results of further samples; [ ] = remark or other dose. This is a subset, so the mix of outcomes need not match the whole.

SMILES	AID923	Resorufin autofl	TSHR agonist	A488 autofl	A647 autofl
Cc1ccc(CCNC(=O)CCNS(=O)(=O)c2ccc3c(c2)c(=O)n(C)c(=O)n3C)cc1	-0.7%	i	-3.6%	i	9.7e-09
O=C(NC(Cc1ccccc1)C(=O)NCc1ccccn1)c1ccco1 (centres undefined)	4.0%	i	?	i	9.7e-09
COc1ccc(OC)c(C2C(C(=O)N(C)C)=C(C)Nc3nc4ccccc4n32)c1 (centres undefined)	0.9%	i	3.3%	i	1.27e-08
O=C(CCCCn1c(=O)c2ccccc2n(Cc2ccc(Cl)cc2)c1=O)NCc1ccco1	1.2%	i	?	i	9e-09
CCCCn1c(Cl)nc2c1c(=O)n(C)c(=O)n2C	-0.8%	i	1.8%	i	1e-09
O=C1NCCN1C(=O)c1cccc(Cl)c1	1.6%	i	15.6%	i	1e-09
Cc1c(CN(C)C(=O)CSc2nc(-c3ccco3)cc(C(F)(F)F)n2)cnn1C	1.7%	i	-1.8%	i	2.33e-08
CC(NC(=O)Nc1nnc(C(F)(F)F)s1)(C(F)(F)F)C(F)(F)F	nt	i	nt	i	2.33e-08
CC1CC(N(C(=O)c2ccco2)c2ccccc2)c2ccccc2N1 (centres undefined)	-0.4%	i	12.6µM*	i	3.21e-08
COCC(C)n1c(COc2ccccc2F)nnc1SCc1c(C)noc1C (centres undefined)	-1.4%	i	?	i	1e-09
COc1ccc(CN(C(=O)c2cccs2)c2nccs2)cc1OC	-1.2%	i	?	i	1e-09
CC(C)CC(=O)Nc1cccc(-c2nc3ccccc3o2)c1	-0.6%	i	4.6%	i	4.5e-09
C[C@@H](CCC(=O)O)C(=O)O	4.1%[11.5 µM]	i	-1.1%[11.4 µM]	i	2.9e-09
CCn1c(CC(C)C)n[nH]c1=S	-1.0%	i	0.9%	i	2.1e-08
CCC(=O)Nc1nc2ccccc2n1CCN(CC)CC	2.0%	i	15.7%	i	1e-09
Nc1[nH]c(=S)[nH]c(=O)c1N=Nc1c(Br)cc(S(N)(=O)=O)cc1Br	-1.6%[11.5 µM]	i	-0.3%[11.4 µM]	i	1.38e-08
Oc1ccc(Cl)cc1-c1cc(-c2ccccc2)n[nH]1	-0.5%	nt	-2.6%	nt	nt
CCOC(=O)Nc1cc(C(=O)OCC)c(C)nc1C	-0.1%	i	-0.8%	i	1.83e-08
COC(=O)c1cn(CC(=O)NCc2ccco2)c2ccccc12	-0.4%	i	12.7%	i	1e-09
Cn1c(=O)c(C(=O)Nc2ncccc2O)c(O)c2ccccc21	1.4%	i	-23.3%	i	1e-09
Cc1nc(N2CCOCC2)[nH]c(=O)c1CCC(C)C	-1.8%	i	3.3%	i	3.9e-09
CCN1C(=O)[C@H]2[C@H]3[C@H](O)[C@H](O)C/C(=N/OCc4ccccc4)[C@H]3CC[C@@H]2C1=O	-1.2%[11.5 µM]	nt	1.6%[11.4 µM]	nt	nt
COC(=O)c1c(-c2ccncc2)csc1NC(=O)c1ccoc1C	-3.4%	i	nt	i	2.1e-08
CC(=O)OC[C@@H]1O[C@@H](O/N=C2/C[C@@H](O)[C@@H](O)[C@@H]3[C@H]4C(=O)N(c5ccc(F)cc5F)C(=O)[C@@H]4CC[C@H]23)[C@H](OC(C)=O)[C@H](OC(C)=O)[C@@H]1OC(C)=O	-1.3%[11.5 µM]	nt	-3.9%[11.4 µM]	nt	nt

Only A488 autofl, AID923 and Resorufin autofl, for two of the compounds above:
| structure | A488 autofl | AID923 | Resorufin autofl |
| --- | --- | --- | --- |
| Cc1ccc(CCNC(=O)CCNS(=O)(=O)c2ccc3c(c2)c(=O)n(C)c(=O)n3C)cc1 | i | -0.7% | i |
| O=C(NC(Cc1ccccc1)C(=O)NCc1ccccn1)c1ccco1 (centres undefined) | i | 4.0% | i |

The list continues.
SMILES	AID923	Resorufin autofl	TSHR agonist	A488 autofl	A647 autofl
C=CCn1c(COc2ccccc2)nnc1SCC(=O)Nc1ccc2c(c1)OCCO2	-0.4%	i	3.1%	i	1.6e-09
COc1ccc(-n2nc(C(=O)N3CCCCC3)c3ccccc3c2=O)cc1	-0.7%	i	-3.3%[11.4 µM]	i	1.9e-09
N#CCCn1cc(C(CC(=O)c2ccccc2)C(=O)O)c2ccccc21 (centres undefined)	-0.7%	i	11.1%	i	6.5e-09
COc1ccc2c(c1)[n+]([O-])c(/C(C)=N/NC(N)=S)c(C)[n+]2[O-]	0.6%[11.5 µM]	i	2.0%[11.4 µM]	i	1e-09
COc1cc(OC)c(Nc2cc(C)nc3nc(C)nn23)cc1Cl	-0.3%	nt	12.7%	nt	nt
Cc1csc(NC(=O)c2ccco2)n1	2.2%	nt	0.3%	nt	nt
COc1ccc2cc(C(=O)NCc3ccco3)c(=O)oc2c1	10.8%	i	2.8%	i	1e-09
CCCCCCCCC(=O)NCc1cc(OC)c(O)cc1I	-3.6%	nt	?	nt	nt
CC(=Nc1ccc(C)c(C)c1)C1=C(O)CCC1=O	nt	i	nt	i	7.91e-08
COc1cccc(OCC(O)CN2CCC(Cc3ccccc3)CC2)c1 (centres undefined)	-1.4%	i	18.7%[11.4 µM]	i	7.6e-09
COC(=O)c1cc2ccccc2c(=O)s1	-0.5%	i	2.5%	i	4.1e-08
O=C(c1ccccc1C(=O)N1CCN(c2ccc(F)cc2)CC1)N1CCN(c2ccc(F)cc2)CC1	-1.0%	i	-10.5%	i	1.73e-08
O=C(OCC(=O)N1CCN(C(=O)c2ccco2)CC1)c1ccccc1C(=O)c1ccccc1	0.4%	i	-1.6%	i	8.2e-09
COC(=O)[C@@]1(Cc2ccc(F)cc2)[C@H]2c3cc(C(=O)N(C)C)n(Cc4ccccc4)c3C[C@H]2CN1C(=O)c1ccccc1	3.1%	nt	?	nt	nt
CC(C)CC(=O)Nc1ccc2oc(-c3ccncc3)nc2c1	5.6%	i	-6.1%	i	2.5e-09
OC1c2ccccc2-c2nc3ccccc3cc21 (centres undefined)	-0.1%	nt	12.5%	nt	nt
CC(=O)N(CC(O)CN(C(C)=O)c1c(I)c(C(=O)NC[C@@H](O)CO)c(I)c(C(=O)NC[C@@H](O)CO)c1I)c1c(I)c(C(=O)NC[C@@H](O)CO)c(I)c(C(=O)NC[C@@H](O)CO)c1I	-0.8%[25.7 µM]	i	-7.8%[25.6 µM]	i	2.54e-08
CCn1c(SCC(=O)Nc2nc(-c3ccc(C)cc3)cs2)nnc1-c1ccccc1O	1.3%	i	8.0%	i	1e-09
COC(=O)C(NC(=O)c1ccccc1)=C(C)C	0.9%	i	-10.2%	i	2e-09
N#Cc1cc2c([nH]c1=S)CCCCCC2	0.4%	nt	3.6%	nt	nt
COCCCNC(=O)c1ccc(N(C)S(C)(=O)=O)cc1	-1.9%	i	-0.5%	i	2.5e-09
COC(=O)c1cc(-c2ccc(OC)c(OC)c2)n[nH]1	0.4%	i	1.2%	i	3.1e-09
CCOC(=O)C1CCN(S(=O)(=O)Cc2ccccc2)C1=O (centres undefined)	0.0%	i	2.4%	i	1.1e-09
CCOc1cc(C2NC(=O)NC(O)(C(F)(F)F)C2C(=O)c2ccc(Cl)cc2)ccc1O (centres undefined)	0.6%	nt	-4.6%[11.4 µM]	nt	nt
O=C(CSC1CCCCC1)Nc1nccs1	-1.0%	i	-8.8%	i	1.89e-08
Cc1ccc(CNC(=O)C2(CC(C)C)C=CCN2C(=O)c2ccccc2)o1 (centres undefined)	1.4%	nt	?	nt	nt
Cc1cccc(N2CCN(C(=O)CCn3c(=O)[nH]c4ccccc4c3=O)CC2)c1C	0.7%	i	0.5%	i	1e-09
CN(c1ccc(OCc2nnc(-c3ccccc3)o2)cc1)S(=O)(=O)c1ccccc1	-0.7%	i	?	i	1e-09
COc1ccc(C(=O)NCc2nnc(SCC(=O)NCc3ccc(F)cc3)o2)cc1	-1.7%	i	8.4%[11.4 µM]	i	6.4e-09
COc1ccc(N2CC(=O)N(c3ccc(OC)c(OC)c3)CC2=O)cc1OC	nt	i	nt	i	7.21e-08
Cc1cccc(OCC(=O)NCc2ccncc2)c1C	0.5%	nt	4.7%	nt	nt
Cc1c(NC(=O)CCC2CCCCC2)c(=O)n(-c2ccccc2)n1C	1.2%	i	-2.0%	i	5.4e-09
Cc1cccc(C)c1OCC(=O)NCc1nnc(SCC(=O)NC2CCCCC2C)n1C (centres undefined)	3.7%	i	0.5%	i	1.69e-08
c1ccc2c(c1)CCN2CCN1CCc2ccccc21	0.1%	nt	9.4%	nt	nt
COc1ccc(C(=O)Nc2ccc(C)cn2)c(OC)c1	-0.1%	i	-4.7%	i	1.55e-08
CN(Cc1c(O)ccc2c1oc(=O)c1ccccc12)C1CCCCC1	nt	i	nt	i	1.7e-09
CCCCOCCCn1cnc2c([nH]c3cc(OC)ccc32)c1=O	2.1%	i	1.7%	i	6.4e-09
CC(NC(=O)C(C)(C)C)c1nc2ccccc2n1C (centres undefined)	-0.1%	i	-1.6%[11.4 µM]	i	2e-09
C=CCSc1nnc2c(n1)OC(c1cccnc1)Nc1ccccc1-2 (centres undefined)	-2.1%	nt	?	nt	nt
CN(C)S(=O)(=O)Nc1ccc(C(=O)O)cc1	-1.0%	i	13.2%	i	2.45e-08
CC1CCCC(C)N1C(=O)CSc1nnnn1Cc1ccccc1 (centres undefined)	0.5%	i	-4.6%	i	1e-09
CN1CCN(CCCNC(=O)CCCOc2cc(=O)n(C)c3ccccc23)CC1	-0.7%	i	-5.6%[11.4 µM]	i	1.57e-08
Cc1ccccc1NS(=O)(=O)c1ccc(OCC(=O)N2CCCC2)cc1	1.0%	i	-19.8%	i	1.93e-08
CCc1nc(N2CCCC2)c(C#N)c2c1CCCC2	nt	i	nt	i	7.2e-09
Cc1[nH]nc2cn[nH]c12	nt	i	nt	i	2.9e-09
C[C@@H]1CCC[C@H](C)N1NC(=O)c1ccc(Cl)c(S(N)(=O)=O)c1	-2.5%[25.7 µM]	i	-7.1%[25.6 µM]	i	2.19e-08&1e-09
COc1ccc(CCNC(=O)c2ccc(CNc3c(N4CCOCC4)c(=O)c3=O)cc2)cc1OC	-2.4%	i	4.3%[11.4 µM]	i	1e-09
O=C(COc1ccc2ccccc2c1Br)N1CCOCC1	0.9%	i	nt	i	3.69e-08
CCc1[nH]c(C)c(C(C)=O)c1C	-1.0%	i	-4.4%	i	1.3e-08
COc1ccc(CCn2nnnc2C(c2ccc(Cl)cc2)N2CCN(C)CC2)cc1OC (centres undefined)	0.3%	i	10.8%	i	4.67e-08
Cc1cccc(OCC(=O)N2CCN(C(=O)Cc3ccccc3)CC2)c1	3.5%	nt	-3.5%	nt	nt
O=c1oc2ccccc2cc1-c1cn2cccnc2n1	9.0%	i	?	i	1.14e-08
CC1CCCCN1C(=O)C12CCC(C)(C(=O)C1)C2(C)C (centres undefined)	1.5%	nt	1.7%	nt	nt
CC(=O)c1c(N)c(C#N)c(C)n1-c1ccc(Br)cc1	0.8%	i	?	i	5.05e-08
O=C(c1ccc(F)cc1)N1CCC(N2CCCCCC2)CC1	nt	i	nt	i	2.3e-09
CC(=O)Nc1ccc(-c2cn3cccnc3n2)cc1	12.3%	i	9.9%	i	3.52e-08
CCOC(=O)N1CCN(S(=O)(=O)c2cccc3nonc23)CC1	0.1%	i	0.4%	i	1.16e-08
CCN(CC)CCCNC(=O)c1cc(-c2ccc(Cl)cc2)on1	0.1%	i	14.9%	i	2.29e-08
Cc1nc2ncnn2c(C)c1CCC(=O)N1CCc2ccccc2C1	1.4%	i	19.1%	i	1.7e-09
Cc1cc(CC(C)C)n(-c2nc3ccccc3c(=O)n2OCC(=O)N(C)C)n1	-0.6%	i	15.3%	i	1.2e-09
COC(=O)C1=C(C)NC(C)=C(C(=O)OC)C1c1ccc(OC(=O)c2ccco2)cc1	6.3%	nt	20µM*	nt	nt
Cc1ccc(C(=O)C(NC(=O)c2ccco2)N2CCOCC2)cc1 (centres undefined)	-0.7%	i	-1.1%	i	3.62e-08
